High-throughput results (PubChem BioAssay)
KCNQ2 enhance – potentiators of rat KCNQ2 potassium channel. CHO-K1 KCNQ2, FluxOR thallium flux fluorescence; hits give high values. B-score at 10 µM. actives 0.54% (n = 310,000). AID 2239;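 active = fluorescence ratio B-score at least 3 SD of library B-scores, with initial fluorescence B-score within 3 SD, cut at about 5.3 in these data; same plate scores as AID 2156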;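 also: B-score of peak minus minimum over baseline fluorescence ratio after K+ and Tl+ stimulus; positive B-score means potentiation of KCNQ2 with more thallium influx and brighter signal; only the inactives scoring about 0 or higher are listed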
Target sequence (O88943 whole entry, looked up): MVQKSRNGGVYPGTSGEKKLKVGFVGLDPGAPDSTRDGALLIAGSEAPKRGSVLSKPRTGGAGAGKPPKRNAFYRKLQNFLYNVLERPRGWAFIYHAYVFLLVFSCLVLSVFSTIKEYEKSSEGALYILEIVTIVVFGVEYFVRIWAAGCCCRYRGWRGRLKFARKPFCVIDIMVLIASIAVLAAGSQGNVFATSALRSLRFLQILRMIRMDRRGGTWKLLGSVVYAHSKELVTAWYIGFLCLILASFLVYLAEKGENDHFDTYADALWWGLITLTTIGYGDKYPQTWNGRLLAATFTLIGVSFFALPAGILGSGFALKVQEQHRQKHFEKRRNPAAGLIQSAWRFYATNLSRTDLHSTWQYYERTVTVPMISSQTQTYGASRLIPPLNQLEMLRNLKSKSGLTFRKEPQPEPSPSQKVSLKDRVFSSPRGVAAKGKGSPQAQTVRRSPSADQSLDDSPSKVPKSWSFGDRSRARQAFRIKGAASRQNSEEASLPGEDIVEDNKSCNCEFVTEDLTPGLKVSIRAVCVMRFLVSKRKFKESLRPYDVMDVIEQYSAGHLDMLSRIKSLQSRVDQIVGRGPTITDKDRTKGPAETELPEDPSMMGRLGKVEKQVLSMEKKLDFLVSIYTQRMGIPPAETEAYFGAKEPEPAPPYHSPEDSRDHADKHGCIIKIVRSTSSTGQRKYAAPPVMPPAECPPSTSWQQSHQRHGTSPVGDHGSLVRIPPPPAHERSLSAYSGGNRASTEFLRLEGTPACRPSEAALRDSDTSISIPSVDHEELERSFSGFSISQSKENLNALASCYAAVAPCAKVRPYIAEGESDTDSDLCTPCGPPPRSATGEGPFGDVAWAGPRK
KCNQ2 enhance baseline – further read-out of KCNQ2 enhance, marked with its call; B-score; compound at 10 µM; measured here: initial fluorescence intensity artifact check;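 brightness before thallium and not channel activity; 0 = typical well and far values either way flag optical interference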
* hit, by the source's call. The list is partial; rates above refer to the full screens.

`O=C(CCC1CCCCC1)Nc1nncs1` gave KCNQ2 enhance 0.26 and KCNQ2 enhance baseline -1.8.
O=C(Nc1ccc(N2CCOCC2)cc1)c1cccc(-n2cnnc2)c1 was read as KCNQ2 enhance 0.83 and KCNQ2 enhance baseline 0.81.
For O=c1cc(Cl)[nH]c(=O)n1Cc1ccccc1 the results were KCNQ2 enhance 1.1 and KCNQ2 enhance baseline -0.08.
CCOC(=O)C1=C(COC(=O)c2ccc(OC(C)C)cc2)NC(=O)NC1C (centres undefined) was read as KCNQ2 enhance 2.2 and KCNQ2 enhance baseline -3.3.
CN1C(C(=O)Nc2ccc(F)cc2F)=CC(c2ccco2)=NS1(=O)=O was read as KCNQ2 enhance 0.45 and KCNQ2 enhance baseline -0.36.
CCOC(=O)Cn1nc(C)n(-c2cccc(Cl)c2)c1=O was read as KCNQ2 enhance 0.89 and KCNQ2 enhance baseline 0.99.
Screening O=C(NC1CCN(C(=O)NCc2ccccc2)CC1)c1ccc(F)cc1 returned KCNQ2 enhance 0.45 and KCNQ2 enhance baseline -0.08.
Cc1ccc(S(=O)(=O)N(CC2CO2)c2ccccc2[N+](=O)[O-])cc1 (centres undefined) was read as KCNQ2 enhance 0.36 and KCNQ2 enhance baseline 0.03.
Screening COc1ccc(OC)c(NC(=O)CC(NCCC2=CCCCC2)C(=O)O)c1 (centres undefined) returned KCNQ2 enhance 1.5 and KCNQ2 enhance baseline 2.2.
For Cc1nn(-c2ccccc2)c2sc(C(=O)NNC(=O)COc3ccccc3)cc12 the results were KCNQ2 enhance 0.1 and KCNQ2 enhance baseline 0.89.
COc1ccccc1-n1c(N)c(C(N)=O)sc1=S was read as KCNQ2 enhance 0.05 and KCNQ2 enhance baseline 1.5.
Screening COc1cccc(CC(=O)N2CCC(n3nccc3NC(=O)C3CC3)CC2)c1 returned KCNQ2 enhance 0.01 and KCNQ2 enhance baseline 1.9.
`N=c1c(S(=O)(=O)c2ccc(Br)cc2)cc2c(=O)n3ccccc3nc2n1Cc1ccco1` gave KCNQ2 enhance 1.4 and KCNQ2 enhance baseline 0.68.
Screening COc1ccc(C2Oc3ccccc3N2C(C)=O)cc1 (centres undefined) returned KCNQ2 enhance 1.3 and KCNQ2 enhance baseline -1.6.
`CCN1CCCC1CNC(=O)c1cc2c(=O)n(C)c3ccccc3c2n1C` (centres undefined) gave KCNQ2 enhance 1.6 and KCNQ2 enhance baseline 0.47.
Screening COc1ccc(OC)c(S(=O)(=O)Nc2ccccc2C(F)(F)F)c1 returned KCNQ2 enhance 0.42 and KCNQ2 enhance baseline -0.95.
Screening COc1ccc(NS(=O)(=O)c2cccc(C(=O)NCCCN3CCCC3=O)c2)cc1 returned KCNQ2 enhance 2.1 and KCNQ2 enhance baseline -0.02.
Screening CN(C1CCCC1)C1CCN(C(=O)CNC(=O)/C=C/c2cccc(C(F)(F)F)c2)CC1 returned KCNQ2 enhance 0.76 and KCNQ2 enhance baseline 0.09.
Screening Cc1ccccc1C1=NC(C(F)(F)F)(C(F)(F)F)c2c(n(-c3ccc(F)cc3)c(=O)[nH]c2=O)N1 returned KCNQ2 enhance 0.94 and KCNQ2 enhance baseline 0.69.
`CCCCn1c(N)c(N(CCOC)C(=O)COC(=O)c2cc(CCC)c(C)s2)c(=O)[nH]c1=O` gave KCNQ2 enhance 0.38 and KCNQ2 enhance baseline 1.8.
`COc1ccc2c(c1)C(c1cccs1)=NNC(c1ccncc1)=N2` gave KCNQ2 enhance 0.57 and KCNQ2 enhance baseline -0.09.
`COc1ccc(C2=[N+](C)CCn3cccc32)c(OC)c1` gave KCNQ2 enhance 0.1 and KCNQ2 enhance baseline -1.9.
Screening CC(C)Oc1cc(NC(=O)CSCC(=O)Nc2cccc(C(F)(F)F)c2)c(Cl)cc1Cl returned KCNQ2 enhance 0.78 and KCNQ2 enhance baseline -1.9.
O=C(COC(=O)C1=COCCO1)Nc1ncc(Cl)cc1Cl was read as KCNQ2 enhance 0.05 and KCNQ2 enhance baseline 0.67.
For CC(NC(=O)c1ccccc1F)c1nnc(SCC(=O)Nc2nnc(C3CC3)s2)n1C (centres undefined) the results were KCNQ2 enhance 0.42 and KCNQ2 enhance baseline -0.28.
CN(C)/C=C/C(=O)c1cnc(-c2ccccc2)s1 was read as KCNQ2 enhance 0.88 and KCNQ2 enhance baseline -1.4.
For CCOC(=O)c1nnc(-c2ccc(C)cc2)nc1Sc1ccccc1Cl the results were KCNQ2 enhance 0.66 and KCNQ2 enhance baseline -1.1.
For CN1CCN(CCCNC(=O)Cn2ncc3c4ccccc4n(C)c3c2=O)CC1 the results were KCNQ2 enhance 0.35 and KCNQ2 enhance baseline 0.11.
For COc1ccc(C2c3cc(OC)c(OC)cc3CCN2C(=O)c2ccccc2)cc1OC (centres undefined) the results were KCNQ2 enhance 0.6 and KCNQ2 enhance baseline -0.42.
Screening CCOC(=O)C1CCN(C(=O)CN(c2cc(OC)ccc2OC)S(=O)(=O)c2ccccc2)CC1 returned KCNQ2 enhance 0.27 and KCNQ2 enhance baseline -0.13.
Screening O=C(Nc1cccnc1Cl)c1cccc(S(=O)(=O)N2CCOCC2)c1 returned KCNQ2 enhance 0.01 and KCNQ2 enhance baseline 1.6.
`O=C(NCC1COc2ccccc2O1)c1cc2ccccc2o1` (centres undefined) gave KCNQ2 enhance 0.81 and KCNQ2 enhance baseline -0.04.
Screening CCc1csc(CCNC(=O)C2CCC(=O)N(Cc3ccccc3F)C2)n1 (centres undefined) returned KCNQ2 enhance 0.69 and KCNQ2 enhance baseline 0.12.
`C=CCn1c(SCC(=O)N2CCCC2)nc2cc(C(=O)NCC3CCCO3)ccc2c1=O` (centres undefined) gave KCNQ2 enhance 1.5 and KCNQ2 enhance baseline 0.54.
For CC(=O)c1c(C)[nH]c(C(=O)Nc2cccc(C(F)(F)F)c2)c1C the results were KCNQ2 enhance 2 and KCNQ2 enhance baseline 0.11.
For CCN(CC)C(=O)N1CCN(S(=O)(=O)c2c(C)cc(C)cc2C)CC1 the results were KCNQ2 enhance 0.34 and KCNQ2 enhance baseline 0.3.
Screening COc1ccccc1N1CCN(Cc2ccsc2)CC1 returned KCNQ2 enhance 0.75 and KCNQ2 enhance baseline -1.
Screening CC(C)C1N=C2c3ccccc3N=C(SCc3cc(=O)n4cc(Cl)ccc4n3)N2C1=O (centres undefined) returned KCNQ2 enhance 1.1 and KCNQ2 enhance baseline -2.9.
Screening O=c1c2c3nc4ccccc4nc3n(/N=C/c3ccncc3)c2ncn1-c1ccccc1 returned KCNQ2 enhance 0.02 and KCNQ2 enhance baseline 2.5.
COc1ccc(S(=O)(=O)Nc2cc3c4c(c2)CCN4C(=O)CC3)cc1C was read as KCNQ2 enhance 1.2 and KCNQ2 enhance baseline -1.1.

An excerpt taken from the entries so far, as a working copy:
`COc1ccc2c(c1)C(c1cccs1)=NNC(c1ccncc1)=N2` gave KCNQ2 enhance 0.57 and KCNQ2 enhance baseline -0.09.
`COc1ccc(C2=[N+](C)CCn3cccc32)c(OC)c1` gave KCNQ2 enhance 0.1 and KCNQ2 enhance baseline -1.9.
Screening CC(C)Oc1cc(NC(=O)CSCC(=O)Nc2cccc(C(F)(F)F)c2)c(Cl)cc1Cl returned KCNQ2 enhance 0.78 and KCNQ2 enhance baseline -1.9.
O=C(COC(=O)C1=COCCO1)Nc1ncc(Cl)cc1Cl was read as KCNQ2 enhance 0.05 and KCNQ2 enhance baseline 0.67.

(listing goes on)
O=[N+]([O-])c1ccc2c(c1N1CCCCC1)=NC1(CCCCC1)[N+]=2[O-] was read as KCNQ2 enhance 0.14 and KCNQ2 enhance baseline -0.16.
CNC(=S)N/N=C/C1=CCC2CC1C2(C)C (centres undefined) was read as KCNQ2 enhance 1.4 and KCNQ2 enhance baseline 0.71.
CCOc1ncccc1C(=O)OCC(=O)Nc1ncc(C(F)(F)F)cc1Cl was read as KCNQ2 enhance 1.7 and KCNQ2 enhance baseline -1.2.
For CCCNC(=O)c1ccc(-c2nc3ccccc3s2)s1 the results were KCNQ2 enhance 0.09 and KCNQ2 enhance baseline -1.6.
`CCn1c(O)c(/C=C2\C=Nc3ccccc32)sc1=O` gave KCNQ2 enhance 1 and KCNQ2 enhance baseline 0.23.
CC(Oc1ccccc1)C(=O)N1CCN(c2ccc(N3CCOCC3)nn2)CC1 (centres undefined) was read as KCNQ2 enhance 0.99 and KCNQ2 enhance baseline 1.5.
For COc1ccc(OC)c(NC(=O)c2nnn(CCc3ccccc3)c2N)c1 the results were KCNQ2 enhance 0.25 and KCNQ2 enhance baseline -0.45.
For O=C(Cc1cc(=O)[nH][nH]1)N/N=C/c1c(F)cccc1Cl the results were KCNQ2 enhance 0.27 and KCNQ2 enhance baseline 1.6.
`O=C(NCc1ccco1)c1cccc(NS(=O)(=O)c2ccccc2F)c1` gave KCNQ2 enhance 0.01 and KCNQ2 enhance baseline -0.69.
CSc1ccc(CN2CCC(n3nccc3NC(=O)CCCc3ccccc3)CC2)cc1 was read as KCNQ2 enhance 1.5 and KCNQ2 enhance baseline -1.3.
Screening CCCCNC(=O)c1cc2c(=O)n3cccc(C)c3nc2n(Cc2ccncc2)c1=N returned KCNQ2 enhance 0.01 and KCNQ2 enhance baseline -0.6.
`COc1ccc([C@@H]2[C@@H]3C(=O)N(C(C)(C)C)C(=O)[C@@H]3[C@]3(Cc4ccccc4)C(=O)N(c4cccc(C)c4)C(=O)N23)cc1` gave KCNQ2 enhance 0.23 and KCNQ2 enhance baseline 0.94.
Screening Cc1cc(N=Cc2cc(Cl)ccc2O)no1 returned KCNQ2 enhance 4.5 and KCNQ2 enhance baseline 1.3.
O=C(CN1CCN(S(=O)(=O)c2ccccc2)CC1)NC(=O)NC1CCCCC1 was read as KCNQ2 enhance 0.81 and KCNQ2 enhance baseline -0.31.
Screening Cc1ccnc2nc(C(=O)Nc3ccc(N4CCOCC4)cc3)nn12 returned KCNQ2 enhance 0.65 and KCNQ2 enhance baseline -0.75.
Screening Cc1cc(C)c(S(=O)(=O)Nc2ncn[nH]2)cc1C returned KCNQ2 enhance 0.54 and KCNQ2 enhance baseline 0.27.
Screening CC(C)NCC(O)COc1ccc(CC(N)=O)cc1 (centres undefined) returned KCNQ2 enhance 0.82 and KCNQ2 enhance baseline 0.16.
`CCN(CC)CCNC(=O)c1ccc2c(c1NCCO)C(=O)c1ccccc1C2=O` gave KCNQ2 enhance 1.7 and KCNQ2 enhance baseline -2.1.
For CCO/C=N/Nc1nc(C(F)(F)F)nc2c1cnn2Cc1ccccc1 the results were KCNQ2 enhance 1.4 and KCNQ2 enhance baseline 0.18.
For COc1ccc(-n2nnnc2SC(C)C(=O)NCC(=O)Nc2ccc(F)c(F)c2F)cc1 (centres undefined) the results were KCNQ2 enhance 0.58 and KCNQ2 enhance baseline -0.03.

Two entries picked at random from those above:
CSc1ccc(CN2CCC(n3nccc3NC(=O)CCCc3ccccc3)CC2)cc1 was read as KCNQ2 enhance 1.5 and KCNQ2 enhance baseline -1.3.
CNC(=S)N/N=C/C1=CCC2CC1C2(C)C (centres undefined) was read as KCNQ2 enhance 1.4 and KCNQ2 enhance baseline 0.71.

The listing continues:
Cc1ccc(S(=O)(=O)N2CCCC(N3CCOCC3)C2)cc1Cl (centres undefined) was read as KCNQ2 enhance 1.1 and KCNQ2 enhance baseline 4.2.
`O=C(Nc1nccs1)c1cc2c(s1)-c1ccccc1OC2` gave KCNQ2 enhance 1.4 and KCNQ2 enhance baseline 0.03.
Screening COc1ccc(OC)c(NC(=O)c2ccc(CSc3ncccn3)cc2)c1 returned KCNQ2 enhance 0.95 and KCNQ2 enhance baseline -0.55.
`CCCCOc1ccc(C(=O)N2CCN(CC(=O)Nc3ccc(C)cc3)CC2)cc1OC` gave KCNQ2 enhance 0.13 and KCNQ2 enhance baseline 1.1.
`CCn1c(CCNC(=O)c2ccc(Cl)c(Cl)c2)nnc1SCCOc1ccc(OC)cc1` gave KCNQ2 enhance 0.31 and KCNQ2 enhance baseline -1.1.
O=C(O)c1cccnc1Oc1ccccc1 was read as KCNQ2 enhance 1.8 and KCNQ2 enhance baseline 0.03.
O=C(NCc1ccccc1)C(c1cccnc1)N(C(=O)c1csnn1)c1ccc(F)cc1 (centres undefined) was read as KCNQ2 enhance 0.01 and KCNQ2 enhance baseline 1.3.
Screening Cc1cc(OCC(=O)Nc2ccc3oc(-c4ccncc4)nc3c2)ccc1Cl returned KCNQ2 enhance 0.28 and KCNQ2 enhance baseline -0.48.
Cc1cccc(Nc2nc3c(c(=O)n(C)c(=O)n3C)n2Cc2ccccc2)c1 was read as KCNQ2 enhance 1.3 and KCNQ2 enhance baseline 0.21.
For CCc1cc(C(=O)N2CCc3c([nH]c4ccccc34)C2c2ccc(OC)cc2F)no1 (centres undefined) the results were KCNQ2 enhance 0.5 and KCNQ2 enhance baseline -1.8.
`CCCOn1nnnc1-c1ccccc1` gave KCNQ2 enhance 0.47 and KCNQ2 enhance baseline 3.
For CC(=O)Nc1ccc(NC(=O)CSc2ccc(C(F)(F)F)cc2[N+](=O)[O-])cc1 the results were KCNQ2 enhance 0.52 and KCNQ2 enhance baseline 1.7.
`O=C(Nc1ccc(F)cc1F)c1csc(-c2ccncc2)n1` gave KCNQ2 enhance 0.4 and KCNQ2 enhance baseline 0.36.
`COCCNC(=O)C(=O)NCCN1CCNCC1` gave KCNQ2 enhance 0.47 and KCNQ2 enhance baseline 0.19.
`O=C(Nc1cccc(F)c1)C1CCCN1C(=O)OCc1ccccc1` (centres undefined) gave KCNQ2 enhance 0.28 and KCNQ2 enhance baseline -1.6.
